FGF22 binding: binders of human FGF22 protein, primary screen, FGF22 synaptogenesis inhibitor project, biophysical, thermal shift, single point | Fibroblast growth factor 22 (Homo sapiens), Q9HCT0 | recombinant FGF22 thermal shift, SYPRO orange fluorescence; percent of sucrose octasulfate shift, DMSO zero | calls only at 9.99 µM | hit rate 1.5% among 340,000;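 active = melting point raised past a set limit in the mean and every replicate; three in four hits are not shown here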
Target sequence (Q9HCT0 whole entry, looked up): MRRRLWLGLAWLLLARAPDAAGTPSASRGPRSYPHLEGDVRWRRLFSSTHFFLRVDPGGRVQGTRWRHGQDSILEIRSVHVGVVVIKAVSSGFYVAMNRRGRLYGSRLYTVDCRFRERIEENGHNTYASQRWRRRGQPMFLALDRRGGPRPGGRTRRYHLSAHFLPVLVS
ALR H2O2 inh: inhibitors of human ALR sulfhydryl oxidase, primary screen, biochemical, H2O2 detection, HRP-luminol luminescence, single point; inhibition, % (concentration not given with the values); purified ALR, DTT oxidation; AID 485317, 2010; hit rate 3.8% among 290,000;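 active = mean and each replicate at 75% or more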;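 also: stock transfer was 7.5 nL into about 7.5 µL; 0% = neutral wells and 100% = wells with inactivated enzyme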
UCH37 DUB inh: inhibitors of human UCH37 deubiquitinase, primary screen, biochemical, Ub-AMC cleavage, fluorescence. Ubiquitin carboxyl-terminal hydrolase isozyme L5 (Homo sapiens), Q9Y5K5. purified proteasome/UCH37. inhibition, % (concentration not given with the values). hit rate 0.33% among 330,000;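 active = mean of two replicates above 20%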;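 also: 0% = compound-free wells with enzyme and 100% = wells lacking proteasome; stock transfer was 100 nL into about 20 µL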
Target sequence (Q9Y5K5 whole entry, looked up): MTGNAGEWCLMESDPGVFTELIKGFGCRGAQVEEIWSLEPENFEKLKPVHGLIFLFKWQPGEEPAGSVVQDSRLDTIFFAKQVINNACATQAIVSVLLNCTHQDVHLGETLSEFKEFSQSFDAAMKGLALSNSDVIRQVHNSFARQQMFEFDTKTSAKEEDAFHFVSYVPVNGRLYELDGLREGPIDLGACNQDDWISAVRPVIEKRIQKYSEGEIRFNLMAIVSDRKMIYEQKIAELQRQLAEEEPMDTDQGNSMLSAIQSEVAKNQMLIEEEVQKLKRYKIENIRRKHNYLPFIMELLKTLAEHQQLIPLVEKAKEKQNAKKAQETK
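Assay system: Proteasome-bound UCH37. Buffer or medium: pH 7.4 Tris-HCl (50 mM) with ovalbumin, ATP-MgCl2, DTT. Incubation: 30 min preincubation with enzyme, 25 min cleavage at room temperature. Measured by: fluorescence, ex 355 nm, em 460 nm. Read-out basis: percent inhibition. Control set: wells without proteasome as full block, compound-free enzyme plus substrate as uninhibited.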
Beta2AR agonist: beta2AR agonists driving receptor internalization, primary screen, cell-based, FAP fluorogen, flow cytometry | Am2.2-beta2AR cells; reference of the scale not given here | response, % (test concentration not listed) | hit rate 0.43% among 340,000 | AID 504454, 2011;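 active = response above a set limit, near 3 SD of response in nonfluorescent compounds, cut at about 42% in these data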;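 also: stock transfer was 100 nL into about 11 µL; a reference agonist was the positive control; negative values mostly stem from fluorescent compounds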
HNF4A DNA FP: change in binding of human HNF4A to DNA, primary screen, biochemical, fluorescence polarization, FITC-DNA. Hepatocyte nuclear factor 4-alpha (Homo sapiens), P41235. 1 h. activity change, % at 10 µM. hit rate 0.3% among 360,000. AID 1224865, 2016; in the data active = activity change above about 30%, passing the limit was not always enough;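 also: controls were the assay level and a saturating level of protein; the project sought stronger binding though the title names inhibitors; some compounds called inactive have numbers as strong as hits; positive values seem to mean higher polarization but the record does not say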
Target sequence (P41235 whole entry, looked up): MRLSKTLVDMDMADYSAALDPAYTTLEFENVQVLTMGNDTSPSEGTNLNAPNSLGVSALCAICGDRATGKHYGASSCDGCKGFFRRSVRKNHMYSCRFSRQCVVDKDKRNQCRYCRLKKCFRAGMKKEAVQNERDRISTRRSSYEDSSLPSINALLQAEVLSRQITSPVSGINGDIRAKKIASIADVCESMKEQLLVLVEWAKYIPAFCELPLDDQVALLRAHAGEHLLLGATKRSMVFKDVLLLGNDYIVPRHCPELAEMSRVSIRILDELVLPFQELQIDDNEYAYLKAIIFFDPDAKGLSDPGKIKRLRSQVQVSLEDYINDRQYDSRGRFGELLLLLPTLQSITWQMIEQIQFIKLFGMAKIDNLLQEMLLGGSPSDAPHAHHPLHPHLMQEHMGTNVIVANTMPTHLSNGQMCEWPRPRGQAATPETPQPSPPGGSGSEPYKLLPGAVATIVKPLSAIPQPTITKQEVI
Ecoli growth: E. coli growth inhibition, primary screen, OD600 | Escherichia coli growth, 23 h; stronger effect = lower value | OD600 absorbance (test concentration not listed) | hit rate 0.21% among 330,000 | AID 1053175, 2014;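 active = OD600 absorbance below the run mean of sample wells minus 3.6 SD, in any replicate, cut at about 0.56 in these data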;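 also: stock transfer was 300 nL into about 60 µL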
Ecoli rRNA inh: reduced GFP signal of wild-type E. coli, primary screen, bacterial rRNA inhibitor project, GFP/RFP fluorescence, OD600, single point; E. coli WT GFP vs humanized-ribosome RFP mutants, 24 h; stronger effect = lower value; DMSO median 0, no signal -100; GFP signal change (wild-type ribosome), % (concentration not given with the values); hit rate 1.6% among 350,000; AID 720706, 2013;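 active = significant combined selectivity score with lowered wild-type GFP, culture density cut under 30%, mutant RFP and density less affected; inactive = any of these conditions unmet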; also: one replicate is shown; some compounds called inactive have numbers as strong as hits
Ecoli rRNA inh OD600: second read-out of Ecoli rRNA inh, no call of its own (marks repeat the call); OD600 change, %; measured here: OD600 growth;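 optical density of the mix in the first replicate; 0 = DMSO median and -100 = no signal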
Ecoli rRNA inh RFP: recorded beside Ecoli rRNA inh, whose call it bears; RFP signal change, %; measured here: RFP humanized mutant strains;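 first replicate; 0 = DMSO median and -100 = no signal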
The depositor's hits bear a star; i = inactive; · = not tested or not shown; & = joins results of further samples.

cpd	Molecule	FGF22 binding	ALR H2O2 inh	UCH37 DUB inh	Beta2AR agonist	HNF4A DNA FP	Ecoli growth	Ecoli rRNA inh	Ecoli rRNA inh OD600	Ecoli rRNA inh RFP
1	COc1ccc(-c2[nH]ncc2CN2CCCC(C(=O)c3ccc(OC)cc3OC)C2)cc1 (stereo unspecified)	i	-16	3.1	-1	0.8	0.69	7	2	1.5
2	Cc1ccc(Cn2ccnc2C(=O)Nc2ccccc2)cc1	i	10	1.8	-3	-1.1	0.71	-5	3	1.9
3	CCCCOC(=O)C1=C(C)NC(=O)NC1c1cccc([N+](=O)[O-])c1 (stereo unspecified)	i	-13	1.0	-4	0.0	0.64	3	1	1.7
4	COc1ccc([C@H]2C[C@H](n3cc(-c4ccc(F)cc4)nn3)[C@@H](O)CN2C(=O)C2CCCCC2)cc1	i	·	·	·	0.0	·	-8	-17	-1.9
5	N#CC(=C(O)CN1CCN(c2ccccc2F)CC1)c1nc(-c2ccc(Cl)cc2)cs1	i	·	1.5	3	-0.6	0.65	-60	-77	-15
6	CCn1c(=O)c(C(=O)NCc2ccccn2)c(O)c2ccccc21	·	·	-1.2	-7	3.1	0.73	·	·	·
7	COc1ccc(O)c(C=NCC(C)N=Cc2cc(OC)ccc2O)c1 (stereo unspecified)	i	15	2.1	13	-1.0	0.69	12	11	0.4
8	CSC1=N/C(=C\c2ccc(C)cc2)C(=O)S1	·	·	-0.4	-3	-2.7	0.8	·	·	·
9	CC(=O)N/N=C/c1cc([N+](=O)[O-])ccc1OCCOc1ccccc1	·	-4	·	-15	-2.0	·	·	·	·
10	Cc1ccc(S(=O)(=O)N2CCc3ccccc3C2)cc1C	i	-7	1.0	-6	2.2	0.7	-19	-8	12
11	Cc1ccc(-c2nnn(CC(=O)Nc3ccc(S(=O)(=O)N4CCC(C)CC4)cc3)n2)cc1	·	-1	6.0	0	2.6	0.65	·	·	·
12	COc1cccc(-c2noc(CCCC(=O)N3CCOCC3)n2)c1	i	·	3.7	-3	3.9	0.66	-2	0	-3.7
13	COc1ccccc1CNC(c1ccccc1)c1ccccc1	i	-4	0.2	-4	-0.6	0.66	-25	-16	-0.5
14	COc1ccc([C@H]2CC(=O)C=C(c3ccc(-c4ccccc4)cc3)C2)cc1OC	i	-6	0.4	1	-1.8	·	11	10	-1.7
15	O=C(O)C1CCCCC1C(=O)Nc1cnn(Cc2ccccc2)c1 (stereo unspecified)	·	1	-2.5	1	-7.3	0.73	·	·	·

The list continues.
cpd	Molecule	FGF22 binding	ALR H2O2 inh	UCH37 DUB inh	Beta2AR agonist	HNF4A DNA FP	Ecoli growth	Ecoli rRNA inh	Ecoli rRNA inh OD600	Ecoli rRNA inh RFP
16	CNC(=S)NC1CC2CCCC(C1)N2Cc1ccc(C)cc1 (stereo unspecified)	i	-3	-3.7	3	3.7	0.63	11	12	1.7
17	O=C(CCN1CCOCC1)c1ccc(N2CCCCC2)cc1	i	69	2.3	0	-1.4	0.62	-4	-5	3.3
18	O=C(CSc1nc(-c2ccccc2)nc2ccccc12)Nc1nccs1	·	-3	-1.2	10	0.4	0.72	·	·	·
19	CN1CCN(S(=O)(=O)c2ccc(C(=O)NC3CCCCC3)cc2)CC1	i	·	·	-5	1.4	·	5	4	-1.8
20	COc1ccc(C2CC(c3cccs3)=NN2C(=S)Nc2ccccc2)cc1OC (stereo unspecified)	i	-5	3.5	-8	2.1	0.73	8	5	-0.7
21	Cn1[nH]c(CSc2ccc(Cl)cc2)cc1=O	·	52	-0.9	4	-0.9	0.7	-44	-48	-12
22	CC(C)c1cc(C(=O)O)n[nH]1	·	-3	0.4	1	-1.2	0.68	·	·	·
23	CCSC1=C(C#N)C2(CCCCC2)C(C#N)=C(N)N1	·	·	3.3	3	-0.1	0.67	·	·	·
24	C[C@H]1CN([C@@H](C)CO)S(=O)(=O)c2ccc(C#CC3CC3)cc2O[C@H]1CN(C)C(=O)c1cccnc1	i	·	·	·	4.0	·	5&-3	-3&4	-3.5&-0.5
25	NC(=O)NC(CC(=O)NCc1ccc2c(c1)OCO2)c1ccccc1Cl (stereo unspecified)	i	-5	3.9	-3	0.1	0.65	2	5	-2.2
26	CC(=O)OC1COC(n2c(O)c(N=NC(N)=S)c3ccccc32)C(OC(C)=O)C1OC(C)=O (stereo unspecified)	i	-12	4.4	-4	0.2	0.69	-1	2	-0.5
27	NS(=O)(=O)c1ccc(NC(=O)CSc2nnc(-c3cnccn3)n2-c2ccccc2)cc1	·	0	-1.0	-5	-1.9	0.76	·	·	·
28	CC(C)NC(=O)N(C)C[C@H]1Oc2c(NS(=O)(=O)c3ccccc3)cccc2C(=O)N([C@H](C)CO)C[C@@H]1C	i	-2	2.2	-6	-1.2	·	-1&0	0&7	2.1&-1.9
29	S=C(Nc1ccccc1Cl)N1CCN(Cc2ccccc2)CC1	i	2	-0.6	-4	-0.9	0.67	2	1	-1.8
30	COC(=O)CNC(=O)C1CCN(c2nc(C)cc(C)n2)CC1	·	5	-4.9	0	2.7	0.73	·	·	·

Quoted at random: 4 compounds from above
cpd	Molecule	FGF22 binding	ALR H2O2 inh	UCH37 DUB inh	Beta2AR agonist	HNF4A DNA FP	Ecoli growth	Ecoli rRNA inh	Ecoli rRNA inh OD600	Ecoli rRNA inh RFP
29	S=C(Nc1ccccc1Cl)N1CCN(Cc2ccccc2)CC1	i	2	-0.6	-4	-0.9	0.67	2	1	-1.8
26	CC(=O)OC1COC(n2c(O)c(N=NC(N)=S)c3ccccc32)C(OC(C)=O)C1OC(C)=O (stereo unspecified)	i	-12	4.4	-4	0.2	0.69	-1	2	-0.5
22	CC(C)c1cc(C(=O)O)n[nH]1	·	-3	0.4	1	-1.2	0.68	·	·	·
30	COC(=O)CNC(=O)C1CCN(c2nc(C)cc(C)n2)CC1	·	5	-4.9	0	2.7	0.73	·	·	·

Further results.
cpd	Molecule	FGF22 binding	ALR H2O2 inh	UCH37 DUB inh	Beta2AR agonist	HNF4A DNA FP	Ecoli growth	Ecoli rRNA inh	Ecoli rRNA inh OD600	Ecoli rRNA inh RFP
31	CC(C)OC(=O)CSc1nnc(-c2ccc(Cl)cc2Cl)o1	·	9	-9.3	-6	-0.2	0.72	·	·	·
32	O=C(Nc1nc2ccccc2[nH]1)c1ccccc1	·	-5	-2.0	-23	-1.9	0.66	·	·	·
33	CCN(CC)S(=O)(=O)c1ccc(N2CCOCC2)c(NC(=O)C2CCCC2)c1	·	-3	2.5	-26	-0.5	0.69	·	·	·
34	Cc1ccc(CNC(=O)CSc2nnc(CNC(=O)c3ccccc3)o2)cc1	i	-16	0.7	-6	-3.1	0.67	7	11	-2.5
35	CCCSc1nc(N)nc(-c2cccs2)c1C#N	·	-5	0.3	11	-1.6	0.72	·	·	·
36	COc1ccccc1NC(=O)CSc1ccc(-c2cccs2)nn1	i	24	7.1	-3	-3.2	0.69	-27*	-21*	2.0*
37	Cc1cc(NS(=O)(=O)c2ccc(NC(=O)COc3ccccc3[N+](=O)[O-])cc2)no1	i	-1	3.2	-2	-8.6	0.74	-2	-6	-3.1
38	COc1ccc(CNC(=O)Nc2cccc(C(F)(F)F)c2)cc1OC	·	-1	1.9	3	-0.3	0.65	·	·	·
39	COc1ccc(S(N)(=O)=O)cc1C(=O)NCC(C)(C)N1CCOCC1	i	3	-0.4	-1	5.1	0.68	0	7	-1.4
40	CC(=O)Nc1nc(-c2cccc3ccccc23)cs1	i	-3	·	2	-3.9	·	-24	-18	-3.3
41	CCOc1cc(/C=C2/C(=N)N3N=C(C)SC3=NC2=O)ccc1OS(=O)(=O)c1ccc(C)cc1	i	20	4.0	12	-2.3	0.72	-10	-3	1.7
42	Cc1ccc2c(cnn2C(=O)CCCC(=O)NC(C)c2ccccc2)c1 (stereo unspecified)	i	-2	6.7	-3	2.0	0.72	5	6	-1.3
43	CCN(CC(=O)Nc1ccccc1C(F)(F)F)C(=O)c1cc(S(=O)(=O)N2CCCCCC2)ccc1OC	i	·	1.6	3	-0.3	0.66	1	1	-1.1
44	CCC1(CC)NC(=S)NC1=S	i	·	1.9	-5	2.0	0.68	16	11	3.1
45	CN(C)CCCNC(=O)C(=O)NCC(c1cccs1)S(=O)(=O)c1ccc(F)cc1 (stereo unspecified)	i	-8	4.1	2	-2.6	0.64	3	5	-0.7

Compounds shown so far with a CF3 group, in the order listed:
cpd	Molecule	FGF22 binding	ALR H2O2 inh	UCH37 DUB inh	Beta2AR agonist	HNF4A DNA FP	Ecoli growth	Ecoli rRNA inh	Ecoli rRNA inh OD600	Ecoli rRNA inh RFP
38	COc1ccc(CNC(=O)Nc2cccc(C(F)(F)F)c2)cc1OC	·	-1	1.9	3	-0.3	0.65	·	·	·
43	CCN(CC(=O)Nc1ccccc1C(F)(F)F)C(=O)c1cc(S(=O)(=O)N2CCCCCC2)ccc1OC	i	·	1.6	3	-0.3	0.66	1	1	-1.1

Later entries.
cpd	Molecule	FGF22 binding	ALR H2O2 inh	UCH37 DUB inh	Beta2AR agonist	HNF4A DNA FP	Ecoli growth	Ecoli rRNA inh	Ecoli rRNA inh OD600	Ecoli rRNA inh RFP
46	O=C(CN1N=C(c2ccccc2)CCC1=O)NCc1ccco1	i	-2	3.8	·	·	0.71	6	4	-8.1
47	NC(=O)CC(NC(=O)Cc1ccc(Br)cc1)c1ccc(NCc2ccccn2)c([N+](=O)[O-])c1 (stereo unspecified)	i	-4	1.2	8	4.7	0.66	10	1	-4.3
48	COC(=O)C1CCN(C(=O)COC(=O)c2oc3ccc(OC)cc3c2C)CC1	i	-12	·	3	2.2	·	-14	-12	2.0
49	CCn1nc(NC(=O)C(C)C)c2cc3ccc(C)cc3nc21	i	2	·	-1	2.9	·	1	9	-1.6
50	CCCCn1c(=O)[nH]c(=O)c2c1nc(-c1ccc([N+](=O)[O-])cc1)n2CC	i	-4	6.4	1	1.7	0.69	7	5	-1.0
51	Cc1ccc(NC(=O)CN(C)C(=O)/C=C/c2cccc(F)c2)cc1	i	·	3.8	-1	1.2	0.72	18	10	3.1
52	CC(C)C[C@H](NC(=O)NCCc1ccc(Cl)cc1)C(=O)O	·	-12	-0.1	7	-0.8	0.73	·	·	·
53	COC(=O)c1ccccc1NC(=O)CSc1ccccc1	·	·	0.8	-2	-1.3	0.68	·	·	·
54	O=C(NCc1ccccc1)C1=C[C@H](C2CCCCC2)C[C@H](OCCCCO)O1	i	-5	2.7	-2	-1.9	0.8	-4	2	10
55	COc1ccc(NC(=O)C2Cc3c(-c4cccc(F)c4)ccnc3O2)cc1 (stereo unspecified)	i	·	·	·	-2.9	·	-5	-39	6.0
56	CCCCNC(=O)c1cn(C)c2ccc(S(=O)(=O)N3CC(C)CC(C)C3)cc2c1=O (stereo unspecified)	·	-3	0.8	4	3.0	0.63	·	·	·
57	Cc1nn(-c2ccc(F)cc2)c(Cl)c1/C=C/C(=O)OCC(=O)Nc1ccc(F)cc1F	·	15	4.5	4	4.0	0.7	·	·	·
58	Fc1ccc(-c2ncc3ccccn23)cc1	i	·	-24	11	-1.8	0.55	21	16	4.4
59	COc1ccc(C2=NOC(C(=O)Nc3cccnc3Cl)C2)cc1 (stereo unspecified)	i	-6	2.2	-4	3.8	0.69	4	4	-0.6
60	COc1ccc(N2CCN(c3nc4ccccc4n3CC(=O)c3ccccc3)CC2)cc1	·	55	4.8	-8	-1.3	0.69	·	·	·

High-throughput results deposited in PubChem by several laboratories.

An excerpt. The share of hits here may be higher or lower than overall.
